Source: PubChem BioAssay (National Center for Advancing Translational Sciences (NCATS))
Rango release inh – prevents RanGTP from dissociating the Rango-importin beta complex; O95149+P62826; Biochemical FRET Rango-importin beta, RanGTP-induced dissociation; Potency, µM (series often up to 46.1 µM), without a hit: top-dose activity change, negative = inhibition; 0.071% of 340,000 active; AID 540253; active means falling FRET ratio curve, often poorly fitted, with flat reads before Ran was added; inconclusive means other falling curves, or compound fluorescence or quenching; inactive means flat or rising ratio curve;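 further: potency means the concentration at half of the fitted maximal effect; % of control where 0% means no effect; nearly all actives have a fitted effect of over 45% in size; -100% = wells without RanGTP and RCC1; the record marks most hits as doubtful in a second field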
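Quantitative HTS using a FRET biosensor: 0.1 uM Rango, 0.25 uM importin beta, 0.6 uM Ran, 2 mM GTP, 0.2 uM RCC1 final, PBS with DTT, Tween-20 and BSA. Post-read taken 45 min after Ran addition.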
GLA inh pH 4.5 – blocks human alpha-galactosidase A at pH 4.5. P06280. 230,000 tested, under 10 active. activity change, negative = inhibition, % at 105 µM. AID 1467. purified enzyme, 4-MU-alpha-Gal fluorescence, pH 4.5; inconclusive = small, poorly fitted or top-dose-only inhibition, or a rising curve; inactive = flat fitted curve, though single readings scatter; no compound was filed as active;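 further: 0% = full activity with enzyme and -100% = basal without enzyme; dose as in the result columns while the protocol names 77 µM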
Target sequence (P06280 whole entry, looked up): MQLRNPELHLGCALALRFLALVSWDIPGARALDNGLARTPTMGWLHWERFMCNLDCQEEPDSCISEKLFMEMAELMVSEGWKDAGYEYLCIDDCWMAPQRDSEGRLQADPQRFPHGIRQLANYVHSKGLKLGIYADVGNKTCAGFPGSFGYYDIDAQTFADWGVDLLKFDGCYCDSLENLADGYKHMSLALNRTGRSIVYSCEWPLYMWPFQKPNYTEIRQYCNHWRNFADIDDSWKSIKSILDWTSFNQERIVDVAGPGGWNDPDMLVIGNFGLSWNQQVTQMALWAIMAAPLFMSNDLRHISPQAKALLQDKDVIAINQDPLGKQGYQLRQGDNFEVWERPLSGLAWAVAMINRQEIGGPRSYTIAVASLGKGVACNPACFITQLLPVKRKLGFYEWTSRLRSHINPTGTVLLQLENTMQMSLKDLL
miR-21 FLuc – miR-21 reporter, rising signal; HeLa miR-21 FLuc reporter, luciferase, 48 h; Potency, µM (top dose mostly 38.3 µM), inactives show at the top dose reporter change, positive = more light; 340,000 tested, under 10 active; active = well fitted rising curve with a large enough effect; inconclusive = small, poorly fitted or top-dose-only effect; inactive = no such curve, though single readings can be large or run the other way;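 further: % of control where 0% means no effect; miR-21 action dims this reporter so a rising signal means less miR-21 action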
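Using DMEM plus 10% FBS, HeLa miR-21-FLuc cells are incubated with test compounds (final up to about 40uM) for 48 hours; firefly luciferase signal is then imaged following reagent-mediated lysis.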
Rango-impB inh – inhibitors of Rango-importin beta complex formation; Rango CFP/YFP FRET sensor + importin beta, 45 min; 0.031% of 340,000 active; Q14974; Potency, µM (titrated, usually from 92.2 µM), without a hit: at the highest dose inhibition of complex formation; AID 540263; active = rising FRET ratio curve, often small or poorly fitted; inconclusive = mostly compound fluorescence or quenching in the first reads; inactive = flat curves in all reads;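 further: potency means the concentration at half of the fitted maximal effect; 0% = DMSO wells and 100% = buffer wells lacking importin beta; nearly all actives have a fitted effect of over 15% in size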
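Inhibition scored from the CFP 486 nm/YFP 530 nm FRET ratio 45 min after adding 0.125 microM importin beta to 50 nM Rango biosensor preincubated 5 min with compound (room temperature, PBS with DTT, Tween-20, BSA). No-importin wells as positive control.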
* = called active by the depositor; ? = inconclusive; . = not tested or not shown; & = joins results of further samples. Not all compounds are listed (hit frequency here may not be typical).

1. COc1ccc(CCNc2cc(-c3ccccc3)nc3ncnn23)cc1
2. O=C(COC(=O)/C=C/c1ccc([N+](=O)[O-])cc1)NNC(=O)c1ccccc1
3. Cc1csc(-c2coc3cc(O)cc(C)c3c2=O)n1
4. CCOC(=O)C1=C(C)N(C[C@@H]2CC[C@@H](Cc3ccc(-c4ccccc4)cc3)O2)C(=O)NC1c1ccc(Cl)cc1 (stereo not given in full)
5. CC(=O)N1c2ccccc2NC(=O)C1(C)C
6. Cc1ccc2nc(-c3cccnc3)oc2c1
7. Cc1ccc(C(=O)O)cc1N1C(=O)c2cccc3cc(Br)cc(c23)C1=O
8. CCn1c(SCC(=O)c2ccc(OC)cc2)nnc1C(C)NC(=O)c1ccc(OC)cc1 (stereo not given)
entry no.	1	2	3	4	5	6	7	8
Rango release inh	-8%	-11%	3%	-21%	-7%	4%	2%	-20%
GLA inh pH 4.5	7	.	0	.	11	6	-7	1
miR-21 FLuc	0%	.	1%	.	1%	-42%	-5%	-5%
Rango-impB inh	-3.7%	4.4%	-7.5%	-0.4%	0.2%	1.4%	0.4%	0.2%

9. COc1ccc(C2C(C(=O)Nc3ccccn3)=C(C)Nc3ncnn32)c(OC)c1 (stereo not given)
10. CCn1nnnc1Oc1ccc(Cl)cc1
11. CC[N+](C)(CC)CC(=O)OCC1C(C)C=C(C)CC1C (stereo not given)
12. COc1ccc(CNC(=O)C(=O)NCC2OCCN2S(=O)(=O)c2ccc3c(c2)OCCO3)cc1 (stereo not given)
13. CC(C)(Sc1ccc(CCN(CCCCC2CCCCC2)C(=O)NC2CCCCC2)cc1)C(=O)O
14. CN(Cc1ccccc1)C(=O)Cc1ccccc1
15. O=C(N/N=C/c1cccnc1)c1ccccc1
16. CC(=O)NN1CCc2cc3ccc(C)cc3nc21
entry no.	9	10	11	12	13	14	15	16
Rango release inh	14%	5%	4%	20%	-8%	10%	-16%	-8%
GLA inh pH 4.5	8	8	-4	2	-9&-11	.	.	.
miR-21 FLuc	-2%	-3%	0%	-11%	.	-9%	-18%	-5%
Rango-impB inh	-0.7%	3.6%	-0.1%	-3.9%	-3.8%	0.1%	2.3%	-0.1%

17. O=S(=O)(c1ccccc1)c1cccc(S(=O)(=O)N2CCCCC2)c1
18. CCOCCCNC(=O)N[C@H](C(=O)OC)C(C)CC (stereo not given in full)
19. CC(OC(=O)c1ccc(Cl)nc1)C(=O)NC1CCCC1 (stereo not given)
20. N#Cc1ccc(C(=O)N(Cc2ccccc2)c2ccccc2)cc1
21. COC(=O)c1ccccc1NC(=O)c1cc[n+]([O-])cc1
22. COc1ccc(C(=O)NCC(=O)OCc2ccccc2F)cc1
23. CC(NC(=O)c1ccco1)C(=O)N1CCN(c2cccc(C(F)(F)F)c2)CC1 (stereo not given)
24. O=C(CN1C(=O)NC2(CCc3ccccc3C2)C1=O)NCc1ccco1 (stereo not given)
entry no.	17	18	19	20	21	22	23	24
Rango release inh	2%	9%	7%	1%	12%	2%	2%	-14%
GLA inh pH 4.5	7	-8	.	.	.	5	.	0
miR-21 FLuc	8%	-3%	.	-1%	0%	-3%	.	-1%
Rango-impB inh	-4.5%	0.3%	11%	-0.1%	-3.5%	-0.1%	1.2%	-2.6%

Record cards (already shown). Screens in order: Rango release inh | GLA inh pH 4.5 | miR-21 FLuc | Rango-impB inh
COc1ccc(C(=O)NCC(=O)OCc2ccccc2F)cc1 as listed: 2% | 5 | -3% | -0.1%
O=S(=O)(c1ccccc1)c1cccc(S(=O)(=O)N2CCCCC2)c1 as listed: 2% | 7 | 8% | -4.5%
N#Cc1ccc(C(=O)N(Cc2ccccc2)c2ccccc2)cc1 as listed: 1% | . | -1% | -0.1%
COC(=O)c1ccccc1NC(=O)c1cc[n+]([O-])cc1 as listed: 12% | . | 0% | -3.5%
O=C(CN1C(=O)NC2(CCc3ccccc3C2)C1=O)NCc1ccco1 (stereo not given) as listed: -14% | 0 | -1% | -2.6%

(more compounds)
25. Cc1c(C(=O)OCC(=O)N(CC(C)C)c2c(N)n(Cc3ccccc3)c(=O)[nH]c2=O)oc2ccccc12
26. CC(C)C(=O)N1CCN(c2c(Cl)cccc2[N+](=O)[O-])CC1
27. CC(c1ccco1)N(C(=O)c1cccc(S(=O)(=O)N(C)C)c1)c1ccccn1 (stereo not given)
28. O=C(Nc1ccccc1)c1cccnc1NCCc1ccccc1
29. COc1ccc(-c2cc(N3C(=O)Nc4ccccc4N3O)n[nH]2)cc1OC
30. COc1ccc(C(=O)Nc2ccc(-c3nnn(CC(=O)NCc4ccco4)n3)cc2)cc1
31. CN1CCC(N(CCc2ccccc2)C(=O)CCC(=O)O)CC1
32. Cc1ccc(NC(=O)CSc2nnc(-c3cccnc3)n2CCN2CCCCC2)cc1
entry no.	25	26	27	28	29	30	31	32
Rango release inh	1%	7%	-4%	-21%	-1%	-8%	-4%	12%
GLA inh pH 4.5	.	-2	.	-1	-2	6	.	0
miR-21 FLuc	.	-1%	5%	-21%	-11%	-14%	-7%	-7%
Rango-impB inh	-1.3%	-0.9%	2.3%	-3.2%	1.9%	0.5%	0.0%	-0.5%

33. CC(C)OCCCNC(=O)CCN1C(=O)COc2ccccc21
34. Cc1nc2cc(Cc3ccccc3)ccc2o1
35. C#CCOCCOCCOCCNc1nc(N2CCOCC2)nc(N2CCN(C(=O)[C@H](C)n3cc(CCC(=O)O)nn3)CC2)n1
36. O=C(COC(=O)Cc1ccccc1[N+](=O)[O-])NCc1ccc(Cl)cc1
37. COc1ccc(NC(=O)C2C(c3ccccc3)C2(Cl)Cl)c(OC)c1 (stereo not given)
38. O=C(Nc1nccs1)c1ccc(Br)c(S(=O)(=O)N2CCCC2)c1
39. CCOC(=O)NNC1CC(=O)N(c2ccc(OC)cc2)C1=O (stereo not given)
40. S=C(Nc1ccccc1)Nc1ccc(Br)cc1
entry no.	33	34	35	36	37	38	39	40
Rango release inh	6%	6%	13%	3%	-2%	-19%	0%	1%
GLA inh pH 4.5	1	.	.	7	.	.	-2	-12
miR-21 FLuc	-1%	.	.	2%	16%	3%	-1%	4%
Rango-impB inh	-0.7%	-2.1%	5.8%	-1.7%	4.0%	-2.2%	-4.9%	0.1%

41. COC(CN1CCc2c(C)nc3c(C#N)cnn3c21)OC
42. CC(=O)c1ccc(NC(=O)c2ccc3c(=O)n4c(nc3c2)CCCCC4)cc1
43. CCOC(=O)CSc1nnc(CNC(=O)c2cccs2)n1Cc1ccccc1
44. Cc1ccccc1NC(=O)COC(=O)CCSc1ccccc1
45. CCn1c(P(C)(=O)O)nc2cc(NC(=O)c3ccccc3Cl)ccc21
46. COc1cc2c(C#N)c(N3CCN(c4ccccc4OC)CC3)nc(N)c2c(N)n1
47. O=C1CC(N2CCc3ccccc32)C(=O)N1c1ccccc1 (stereo not given)
48. COc1cc(/C=C2\SC(=O)N(CCNC(=O)c3sc4cc(F)ccc4c3Cl)C2=O)cc(OC)c1OC
entry no.	41	42	43	44	45	46	47	48
Rango release inh	8%	-13%	-5%	0%	-18%	-15%	6%	1%
GLA inh pH 4.5	9	.	-2	5	-16	-19	7	5
miR-21 FLuc	-18%	9%	-4%	-10%	-1%	27%	-27%	0%
Rango-impB inh	-2.8%	5.5%	-2.5%	?	-0.3%	0.8%	7.3%	3.6%

49. COc1ccc(OC)c(NC(=O)CNC(c2ccccc2)c2ccccc2)c1
50. COc1ccc2c(c1)c1nc3ccccc3nc1n2Cc1ccc(OC(C)C)c(OC)c1
51. CCOC(=O)c1sc2ncnc(N3CCN(C(=O)OCC)CC3)c2c1C
52. C/C(=N\Nc1cccc2cccnc12)c1ccc(N)cc1
53. COc1ccc(NC(=O)CN(C)C(=O)CCC2CCCC2)cc1
54. Cc1nn(Cc2ccccc2Cl)c(C)c1NC(=O)NC12CC3CC(CC(C3)C1)C2
55. CCOC(=O)c1sc(NC(=O)c2ccc(S(=O)(=O)N(C)C)cc2)nc1C
56. CCOc1ccccc1/C=N/NC(=O)CSc1n[nH]c(=O)[nH]c1=O
entry no.	49	50	51	52	53	54	55	56
Rango release inh	-4%	2%	-12%	?	-1%	0%	12%	6%
GLA inh pH 4.5	.	-14	-4	?	.	1	4	3
miR-21 FLuc	12%	-1%	-10%	-51%	2%	2%	0%	-4%
Rango-impB inh	0.5%	?	1.8%	?	10%	3.9%	1.3%	3.4%

57. CCC1CCC2(CC1)NC(=O)N(CC(=O)c1c(C)[nH]c3ccccc13)C2=O (stereo not given)
58. Cc1cc(C(=O)Nc2ccc(Cl)cc2)c(C)n1Cc1cccs1
59. O=C(COC(=O)C1=COCCO1)NCc1ccc(F)cc1
60. Cc1ccc(NC(=O)C(C)Sc2nnc(-c3cccnc3)o2)cc1 (stereo not given)
61. COc1ccc2c(c1)-c1c(ssc1=S)C(C)(C)N2S(=O)(=O)c1ccc(C)cc1
62. COc1ccc([N+](=O)[O-])cc1NC(=O)C(C)OC(=O)c1ccccn1 (stereo not given)
63. Fc1ccc(COc2ccccc2CNCc2ccncc2)cc1
64. CCCCc1nc2cc(C(=O)N3CCCC(COC)C3)ccc2o1 (stereo not given)
entry no.	57	58	59	60	61	62	63	64
Rango release inh	-7%	-14%	-16%	-2%	22%	-13%	-4%	-6%
GLA inh pH 4.5	-5	-6	.	7	-6	-1	-1	.
miR-21 FLuc	1%	-26%	0%	-29%	30%	-1%	-3%	-48%
Rango-impB inh	-0.1%	9.3%	0.0%	1.0%	3.2%	0.1%	-0.7%	-0.7%

65. Cc1cc(S(=O)(=O)ON2C(=O)c3ccccc3C2=O)ccc1F
66. CCOC(=O)C(C(=O)NCc1ccc(C)cc1)c1ncc(C(F)(F)F)cc1Cl (stereo not given)
67. CN1CCN(c2nc(Nc3cccc(C(F)(F)F)c3)nc(N3CCOCC3)n2)CC1
68. Oc1ccc(NCc2ccc(OCc3ccccc3)cc2)cc1
69. Cc1ccc(NC(=O)CN2C(=O)S/C(=C\c3cc(C)n(-c4cccc(C(=O)O)c4)c3C)C2=O)cc1
70. CCCCOc1ccc(NC(=O)CSc2cccc3cccnc23)cc1
71. CCN(CCNC(=O)C1=C(C)C(=O)OC12CCC(C)CC2)c1ccccc1 (stereo not given)
72. Cc1c(OC(C)C(=O)NCc2ccncc2)ccc2c3c(c(=O)oc12)CCCC3 (stereo not given)
entry no.	65	66	67	68	69	70	71	72
Rango release inh	?	-4%	1%	-2%	?	-11%	-11%	6%
GLA inh pH 4.5	.	0	-6	.	-9	6	-18	.
miR-21 FLuc	0%	-5%	1%	-19%&-5%	-1%	-3%	8%	0%
Rango-impB inh	-3.5%	-2.2%	2.5%	3.6%	?	-0.2%	-0.6%	-2.5%

Three of the entries above in order of the Rango release inh value, ascending.
70. CCCCOc1ccc(NC(=O)CSc2cccc3cccnc23)cc1
66. CCOC(=O)C(C(=O)NCc1ccc(C)cc1)c1ncc(C(F)(F)F)cc1Cl (stereo not given)
68. Oc1ccc(NCc2ccc(OCc3ccccc3)cc2)cc1
entry no.	70	66	68
Rango release inh	-11%	-4%	-2%
GLA inh pH 4.5	6	0	.
miR-21 FLuc	-3%	-5%	-19%&-5%
Rango-impB inh	-0.2%	-2.2%	3.6%
